Screens deposited in PubChem by Fisher Drug Discovery Resource Center.
NPYLR7 agonist – mosquito NPYLR7 agonism; HEK293T NPYLR7/Galpha15, GCaMP6s calcium fluorescence; activation, % at 10 µM; AID 1259423; 270,000 tested, 0.15% active; in the data active = activation above about 40%;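 note: 0% = vehicle and 100% = reference agonist at the receptor; some compounds past the cut are filed as inactive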
NPYLR7 agonist max-min – second read-out of NPYLR7 agonist, no call of its own (marks repeat the call); activation, %; measured here: Max-Min RFU normalised activation; some inactives read as strong as hits;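 span of the calcium signal over five minutes; 0% = vehicle and 100% = native peptide agonist; compound fluorescence can raise it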
An asterisk follows results filed as active; & = joins results of further samples; ! = a repeat was not active. The list is partial. The share of hits here may be higher or lower than overall.

A first look, 2 compounds:
SMILES	NPYLR7 agonist	NPYLR7 agonist max-min
COC(=O)CC1C(=O)NCCN1Cc1nc2c(C)c(C)ccc2[nH]1 (centres undefined)	10	2
Cc1ccc(CCC(=O)NCC(=O)C(C#N)c2nc(C)cs2)cc1 (centres undefined)	9	7

All compounds of this part, previewed entries included:
SMILES	NPYLR7 agonist	NPYLR7 agonist max-min
COC(=O)CC1C(=O)NCCN1Cc1nc2c(C)c(C)ccc2[nH]1 (centres undefined)	10	2
Cc1ccc(CCC(=O)NCC(=O)C(C#N)c2nc(C)cs2)cc1 (centres undefined)	9	7
CCOC(=O)C1CCCN(CC(=O)N2N=C(c3cccc(OC)c3)CC2c2ccc(Cl)cc2)C1 (centres undefined)	18	11
COc1ccc(S(=O)(=O)N(C)CCc2ccccc2)cc1N1CCN(S(=O)(=O)c2ccccc2C)CC1	6	3
Cc1nc(C)c(Cc2ccccc2Cl)c(N2CCN(C(=O)N(C)C)CC2)n1	-2	10
COC(CNC(=O)CNc1ccc(C#N)cc1)c1ccccc1 (centres undefined)	-5	-6
CC(NC(=O)C(C1CCCC1)N1CCN(C(=O)Nc2ccccc2)CC1)c1ccccc1 (centres undefined)	-4	-6
CCCN1CCC(C(=O)NC(c2ccc(Cl)cc2)c2cccnc2)CC1 (centres undefined)	16	7
O=C(Nc1c(Cl)cccc1Cl)N1CCSC1c1cccc(Oc2ccccc2)c1 (centres undefined)	12	20
CCOC(=O)c1ccc(Oc2ccc(C#N)cn2)cc1	8	6
Cc1ccc(-c2cc(O)c3c(c2)CN(C(=O)CCc2n[nH]c(C)n2)CCO3)cc1	-8	-10
COc1cc2c(cc1OC)C(c1ccccc1Cl)N(C(=O)c1cc(C(F)(F)F)cc(C(F)(F)F)c1)CC2 (centres undefined)	19	11
Cc1csc(NC(=O)NC2CC(=O)N(c3ccccc3)C2)n1 (centres undefined)	6	7
Cc1ccc(C)c(-c2ccc(=O)n(CC(=O)N3CCCC3)n2)c1	11	4
O=C(c1cccc(F)c1)N(Cc1cccc(C(F)(F)F)c1)CC1CC(c2ccc3c(c2)OCO3)=NO1 (centres undefined)	19	23
CCn1c(=O)c(C(=O)NCc2ccccc2)nn(-c2ccc(Cl)cc2)c1=O	3	7
CC(=O)Nc1c2c(nn1CC(=O)NCCc1ccccc1)CSC2	-1	1
Cc1nn(CC(=O)Nc2ccc3c(c2)OCCO3)c(=O)c2c1cnn2C(C)(C)C	5	1
CCCCn1c(=O)n(CC(=O)Nc2cc(C)on2)c(=O)c2c1ncn2Cc1ccco1	0	-3
O[C@@H]1C[C@@H]2C[C@H](c3ccccc3)OC[C@@]2(O)[C@H]1N1CCN(c2ccccn2)CC1	3	4
O=C1CC(c2ccccc2)N(CC(=O)NC2CCCCCC2)CCN1 (centres undefined)	-5	-4
Cc1cccc(N2CCN(c3c(Cc4ccccc4)c(C)nc4ncnn34)CC2C)c1 (centres undefined)	18	9
O=C(COc1ccccc1F)Nc1nc(Br)cn2ccnc12	6	4
C1CCc2[nH]nc(CNC3CSCCSC3)c2CC1	13	9
CCc1nc2ccc(C(=O)Nc3ccc(NC(C)=O)cc3)cn2c1N(C)CCCc1ccccc1	20	16

A different layout for part of the listing above:
Structure | NPYLR7 agonist | NPYLR7 agonist max-min
COC(CNC(=O)CNc1ccc(C#N)cc1)c1ccccc1 (centres undefined) | -5 | -6
CC(NC(=O)C(C1CCCC1)N1CCN(C(=O)Nc2ccccc2)CC1)c1ccccc1 (centres undefined) | -4 | -6
CCCN1CCC(C(=O)NC(c2ccc(Cl)cc2)c2cccnc2)CC1 (centres undefined) | 16 | 7

Record cards, from the list above. Values in the order: NPYLR7 agonist | NPYLR7 agonist max-min
`Cc1nc(C)c(Cc2ccccc2Cl)c(N2CCN(C(=O)N(C)C)CC2)n1` is listed as -2 | 10
`CCCCn1c(=O)n(CC(=O)Nc2cc(C)on2)c(=O)c2c1ncn2Cc1ccco1` is listed as 0 | -3
`COc1ccc(S(=O)(=O)N(C)CCc2ccccc2)cc1N1CCN(S(=O)(=O)c2ccccc2C)CC1` is listed as 6 | 3

The listing continues:
SMILES	NPYLR7 agonist	NPYLR7 agonist max-min
CCC1CCCN(C(=O)Nc2ccc(C(=O)N3CCCC3)cc2C)C1 (centres undefined)	-1	-2
Cn1cnc2c1c(=O)n(CC(=O)O)c(=O)n2C	1	0
CCCOc1ccc(Cn2c(CO)nc3ccccc32)cc1	20	24
Cc1cc(C)c(C)c(S(=O)(=O)NC(=O)CC2CCS(=O)(=O)C2)c1C (centres undefined)	4	2
CCC1=NN(C(=O)c2cccc(Br)c2)C(O)(c2ccc(C)cc2)C1 (centres undefined)	6	0
Cc1n[nH]c(C)c1CCCNC(=O)C1CC2(CCNCC2)CN1 (centres undefined)	16	5
Cc1nn(CC(=O)NC(C)(C)C)c(C)c1S(=O)(=O)N1CCOCC1	4&-4	2&-4
CN(C)CCN(Cc1ccco1)C(=O)C1CN(Cc2ccccc2)CCO1 (centres undefined)	7	3
N#CCCC(C#N)Cn1cnc2ccc(Cl)cc2c1=O (centres undefined)	2	2
O=C1CCC(C(=O)N2CCOc3ccc(Cl)cc3C2)CN1CCCN1CCOCC1 (centres undefined)	15	3
N#CC1C(=N)SC(=N)C(C#N)C1c1ccccc1F (centres undefined)	47*!	43*!
Cc1cccc(NC(=O)Cn2c3ccccc3c3ncn(Cc4ccccc4)c(=O)c32)c1	-1	-3
COc1ccccc1C1=NOC(CN(Cc2cccc(Cl)c2)C(=O)NC(C)(C)C)C1 (centres undefined)	8	15
COCCN(CC(=O)N(CCc1ccc(OC)c(OC)c1)Cc1ccc(C)o1)C(=O)Nc1ccccc1C	-6	-15
CC(C)CN(Cc1ccccc1C#N)C1CCS(=O)(=O)C1 (centres undefined)	-2	-4
COc1ccc(C2=NN(C=O)C(c3ccccc3)C2)cc1 (centres undefined)	11	12
CCC(=O)O[C@H](CC(=O)O)C[N+](C)(C)C	-6	-4
O=C(c1cccc(Br)n1)N1CCOC(COc2cccc(C(F)(F)F)c2)C1 (centres undefined)	-6	-10
Cc1ccc(Cc2nnc(NC3CCCC3)[nH]c2=O)cc1	11	4
COc1cc(N2CCC(CO)(Cc3ccc(Cl)cc3)CC2)ncn1	16	12
O=C1C=C(Nc2cccc(F)c2)C(=O)N1CCO	5	6
COc1cc(C(=O)N2CCC(n3nc(-c4ccccc4)cc3-c3ccccc3)CC2)ccc1F	18	12
COc1ccc(Br)cc1-c1nnc2n(CC(C)C)c3c(=O)[nH]c(=O)n(C)c3n12	-1	-2
COc1cc2c(cc1/C=C/C(=O)N(CC(=O)Nc1cccc(C)c1C)CC1CCCO1)OC(C)C2 (centres undefined)	3	5
Cc1cc(C(=O)N=c2sc3cc4c(cc3n2C)OCCO4)on1	10	13

Other compounds follow.
SMILES	NPYLR7 agonist	NPYLR7 agonist max-min
Cc1ccc(-n2nnc3c(=O)n(Cc4ccccc4F)cnc32)cc1	7	11
COc1cc(NC(=O)CCN2C(=O)NC(C)(C)C2=O)cc(OC)c1	4	3
O=C(/C=C/c1cccs1)N(CCCN1CCOCC1)c1nc2c(F)cc(F)cc2s1	-3	-9
CCC(CC)C(=O)N1CCN(c2ccc(-n3nc(C)cc3C)nn2)CC1	-3	-8
Cc1cccc(CC(=O)Nc2c(C)nc3ccc(Cl)cn3c2=O)c1	2	0
O=S(=O)(NC(c1ccccc1)c1ccccc1)N1CCCCC1	2	2
COc1cccc(CSc2nnc(CNC(=O)Nc3c(C)cccc3C)n2-c2cc(Cl)ccc2Cl)c1	6	13
CC(C)NC(=O)Nc1ccc(N(C)C)c(CN(C(=O)C(C)(C)C)C2CC2)c1	17	13
CC(C)Cc1nc(C(c2ccccc2)n2cnnn2)n(-c2ccccn2)n1 (centres undefined)	1	0
CNC(=O)c1cc(-c2ccccc2)n[nH]1	16	12
Cc1cc(C(=O)N(Cc2ccco2)c2nc3c(C)cc(Cl)cc3s2)on1	-3	4
CCc1nc2c(OCc3cc(Cl)cc(Cl)c3)cccn2c1N(C)C(=O)c1cccc(OC)c1	7	-3
O=C(NCCc1ccc(Cl)cc1Cl)c1ccc(-c2ccc3c(c2)OCO3)s1	23	14
Cc1ccccc1[C@H]1[C@@H](C(=O)NCc2ccncc2)C[C@@](C)(C(=O)O)N1C	1	-1
CCOC(=O)c1ccc2c(c1)nc(SCc1ccccc1I)n2Cc1ccc(C(F)(F)F)cc1	1	-2
Cc1ccc(C(=O)N2CCN(C(C(=O)NCc3cccnc3)C3CCCC3)CC2)cc1[N+](=O)[O-] (centres undefined)	-2	4
CSc1nc(-c2ccco2)nn1C(=O)c1ccco1	3	3
C=C(C)CN1CCN(c2nc3c(c(=O)[nH]c(=O)n3C)n2Cc2ccccc2)CC1	3	0
CCCCCCCCC(=O)Nc1ccc(C2SCC(=O)N2c2ccc3c(c2)OCO3)cc1 (centres undefined)	-10	-8
COc1ccc(C(=O)NNC(=O)C(NC(=O)C2CCCCC2)C(C)C)cc1 (centres undefined)	4	1
COc1cccc(Oc2cc(C(F)(F)F)nc(SCc3ccc(F)c(F)c3)n2)c1	1	1
CCCN1CCC(Cc2noc(C3(N)CCCC3)n2)CC1	9	2
CCc1nn(-c2ccccc2)c(Oc2cccc(F)c2)c1CN(CC(O)COc1ccccc1)C1CC1 (centres undefined)	15	15
Cc1c(C(=O)NCc2cccs2)sc(=O)n1Cc1cccc(F)c1	10	4
O=C(c1cn2cccnc2n1)N1CCC(c2[nH]ncc2Cc2ccccc2)CC1	0	-4

(next part)
SMILES	NPYLR7 agonist	NPYLR7 agonist max-min
Cc1cc2c(cc1Br)NCCC2	0	-4
Cc1nc(SCc2ccc(C(=O)NCc3ccncc3)cc2)nc(N2CCOCC2)c1C	1	14
CC1(C)CCc2[nH]c(=O)c(C#N)cc2C1	3	6
Cc1sc2nc(CCc3ccccc3)nc(N3CCN(C(=O)c4cccc(Cl)c4)CC3)c2c1C	-1	3
Cc1cccc(OCC(=O)N2CCOC(COCc3c(Cl)cccc3Cl)C2)c1 (centres undefined)	3	1
Cn1ncc([N+](=O)[O-])c1C(=O)Nc1ccc(N=Nc2ccccc2)cc1	0	-4
Nc1nc(N2CCN(Cc3cccc(Cn4cccn4)c3)CC2)cc(=O)[nH]1	3	0
CC(C)(C)OC(=O)NCC1CCC(C(=O)N2CCN=C2Nc2ccc(Cl)cc2)CC1 (centres undefined)	5	4
Cc1cc(C(=O)N2CCN(CCCOC(c3ccc(Cl)cc3)c3ccc(Cl)cc3)CC2)cc(Cl)n1	-1	-8
N#CC1(NC(=O)COC(=O)C2CC3CCCC(C2)C32SCCS2)CCCC1 (centres undefined)	5	13
COc1c(F)ccc(C(=O)N2CCC3(CCC(=O)N(C)CC3)CC2)c1F	5	1
CC(C)N(Cc1nccn1C)C(=O)c1ccc(OC2CCN(C(=O)C3CC3)CC2)cc1	2	0
CC#CCN(Cc1ccco1)C(=O)c1cn(CC2COc3ccccc3O2)nn1 (centres undefined)	3	-7
O=C(CCc1c[nH]c2ccccc12)N1CCN(C(c2ccccc2)c2ccc(Cl)cc2)CC1 (centres undefined)	-5	-11
COCC(=O)Nc1ccc(N(C)C)c(CN(CC2CC2)C(=O)NC(C)C)c1	19	29
COC(=O)c1ccc(N=Cc2nc(-c3cc(OC)c(OC)c(OC)c3)oc2O)cc1	-7	-11
O=C(Cn1cnnn1)Nc1ccccc1C(=O)N1CCCCCC1	36	19
COc1ccccc1C(NC(=O)C1CCN(CCOc2ccc(Cl)cc2)CC1)c1ccccn1 (centres undefined)	2	2
COc1cc(CNC(=O)c2ccc(-c3cccc(C(F)(F)F)c3)s2)cc(OC)c1	4	0
CC(C)Oc1ccccc1CC(=O)N1CCC(OCC(N)=O)C1 (centres undefined)	-1	-2
CN(C)CCNS(=O)(=O)c1ccc2c(c1)CCC2	4	12
COC(=O)C(c1ccc(OC)cc1)C1C=CC(NC(=O)c2cc(F)ccc2Cl)C1 (centres undefined)	-2	-6
O=C(O)c1cc(COc2c(Cl)cccc2Cl)on1	5	3
CC(=O)NC(CC(=O)NC1CCN(C(=O)c2ccncc2)CC1)c1cccs1 (centres undefined)	10	6
CCOC(=O)C1C(=O)C=C(c2cccs2)CC1c1ccccc1OCC (centres undefined)	9	12

Some of the entries so far, field by field:
COc1c(F)ccc(C(=O)N2CCC3(CCC(=O)N(C)CC3)CC2)c1F
  NPYLR7 agonist: 5
  NPYLR7 agonist max-min: 1
COc1cc(CNC(=O)c2ccc(-c3cccc(C(F)(F)F)c3)s2)cc(OC)c1
  NPYLR7 agonist: 4
  NPYLR7 agonist max-min: 0
COCCN(CC(=O)N(CCc1ccc(OC)c(OC)c1)Cc1ccc(C)o1)C(=O)Nc1ccccc1C
  NPYLR7 agonist: -6
  NPYLR7 agonist max-min: -15
O=C(Nc1c(Cl)cccc1Cl)N1CCSC1c1cccc(Oc2ccccc2)c1 (centres undefined)
  NPYLR7 agonist: 12
  NPYLR7 agonist max-min: 20

Further structures.
SMILES	NPYLR7 agonist	NPYLR7 agonist max-min
O=C(O)c1cc(O)c2c(c1)C(=O)c1cc(O)cc(O)c1C2=O	-10	-14
CN(Cc1ccccc1O)C(=O)NCc1nc(C2CC2)no1	1	-2
COCCN1C(=O)[C@]2(C)[C@H](c3ccccc31)[C@@H](C(N)=O)CN2C(=O)Nc1ccccc1	15	15
COc1cc(OC)cc(C(=O)Nc2nc3ncccc3cc2-c2ccccc2)c1	3	9
O=C(COc1c(Cl)cc(Cl)cc1Cl)N=Nc1c(O)[nH]c2ccc(F)cc12	-5	-8
O=C(NCCN1CCCC1)c1ccccc1N1CCC(NS(=O)(=O)c2ccccc2)CC1	8	20
C=CC(C)(O)CC/C=C(/C)COC(=O)C(C)C1CCC(C)(C=C)O1 (centres undefined)	-10	-17
CC(C)(C)NN=Cc1cc(Br)ccc1O	-3	-5
CC(=O)c1cccc(N2C(=O)C3C4C=CC(C4=C(C)C)C3C2=O)c1 (centres undefined)	1	1
COc1ccc(CCNC(=O)CCCNS(=O)(=O)c2cccs2)cc1OC	1	-3
Cc1cnccc1-c1cccc(C(=O)O)c1	-1	1
O=C(c1cccnc1Cl)N1CCN(C(c2ccccc2)c2ccc(F)cc2)CC1 (centres undefined)	-7	-3
CNC(=O)c1c(NC(=O)c2cnc(C(C)C)nc2C)sc2c1CCCC2	2	-2
COC(=O)c1csc2c(C(F)(F)F)cc(N3CCN(CC(=O)Nc4cc(C)nn4C)CC3)nc12	-1	-3
